Compound activity as filed in PubChem.
VCAM-1 rise: boosters of cytokine-driven VCAM-1 levels – cell-based, plate reader, pooled HUVEC, TNFa stimulus (AID 455); actives 0.2% (n = 10,000); augmentation, % at 5 µM; HUVEC TNFa-induced VCAM-1 immunofluorescence, plate reader; numbers were filed only for top-ranked candidate wells;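 active means a compound raising TNF-alpha-driven VCAM-1 surface staining, with its hit status upheld on visual or statistical review; inactive means the rest, including hits rejected on review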;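 further: 0% = TNFa with vehicle and 100% = strongest image-checked hit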
Proteasome disasm: blocks ATP-dependent breakdown of the yeast 26S proteasome. anti-FLAG beads, GFP-proteasome disassembly, flow cytometry. inhibition of disassembly, % (test concentration not listed). actives 0.2% (n = 24,000). AID 751;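 active means above 40%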;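 further: plate controls were ATP control with full disassembly for no effect and ATP-gamma-S intact proteasomes for full effect; higher percent means more bead fluorescence retained so stronger block of disassembly; stock transfer was 100 nL into about 10 µL; wells with too few beads may also be inconclusive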
Active calls of the source: *; i = inactive; x = not tested or not shown. Not all compounds are listed (hit frequency here may not be typical).

The line under a structure holds: VCAM-1 rise | Proteasome disasm
CC(C)COC(=O)C1C2C=CC3(CN(C(C)c4ccc(Br)cc4)C(=O)C13)O2 (configuration not stated)
    i | 0.6
O=C(NCCN1CCN(c2ccccc2)CC1)c1cccn2c(=O)c3cc(Cl)ccc3nc12
    x | 1.6
Cc1ocnc1C(=O)Nc1ccc(Cl)cc1
    x | -1.6
CC12C(=O)N(CCC(=O)O)C(=O)C1C1C=CC2C1 (configuration not stated)
    i | -0.1
CC(C)c1ccc(C(=O)CSc2ncn[nH]2)cc1
    x | 0.6
CCC(Sc1nc2cc(OC)c(OC)cc2c2nc(C)nn12)C(=O)NCc1ccco1 (configuration not stated)
    x | -0.1
COc1cccc(C2=NOC(C(=O)Nc3cc(C)nn3-c3ccccc3)C2)c1OC (configuration not stated)
    i | 2.7
Cc1ccc(CS(=O)(=O)CCC(=O)NCCCN2CCCC2)cc1
    x | -0.1
CCOc1ccccc1NC(=O)CSc1nnc(Cc2cccn2C)n1-c1ccc(F)cc1
    i | 4.0
CN(C)CCCN1C(=O)C(=O)/C(=C(/O)c2ccncc2)C1c1cccc(Br)c1 (configuration not stated)
    i | -0.7
O=C(Cn1cccc1C(=O)c1ccccc1)NCc1cccs1
    x | -0.9
COC(=O)C(C)Sc1ncnc2c1nnn2-c1ccc(F)cc1 (configuration not stated)
    x | -0.7
O=C(NC1CCCC1)c1ccc(CS(=O)(=O)c2cccc(C(F)(F)F)c2)o1
    x | -0.1
CC1Cc2nc(SCC(=O)NC3CCCCC3)n(C)c(=O)c2S1 (configuration not stated)
    x | 6.7
COc1ccc(NC(=O)c2cc(C)on2)cc1OC
    i | -0.5
CN1C(=O)OC(C)(CCc2ccccc2)C1(C)O (configuration not stated)
    x | -1.0
O=C(Nc1ccccc1C(=O)NCCCn1ccnc1)c1ccccc1
    i | 1.7
O=C1c2ccccc2C(Nc2ccc3c(c2)OCCO3)N1Cc1ccc2c(c1)OCO2 (configuration not stated)
    i | 0.8
O=C(CCCN1CCC(O)(c2ccc(Cl)cc2)CC1)c1ccc(F)cc1
    i | -0.8
Cc1nc2nc(SCC(=O)N3CCOCC3)nn2c(C)c1Cc1c(F)cccc1Cl
    x | -0.6
COC(=O)C(NC(=O)c1ccco1)(Nc1nc(C2CC2)cs1)C(F)(F)F (configuration not stated)
    x | -0.1
O=C(c1ccco1)N1CCN(C(=O)c2cccc3c2C(=O)N(Cc2cccnc2)C3)CC1
    x | 0.7
O=C(CNS(=O)(=O)c1cccc2nsnc12)NC1CCCCC1
    x | -0.3
Cc1cccc(-n2nnc(C(=O)NCc3ccccc3)c2N)c1
    i | -1.7
CN1CC2(C(=O)c3ccccc3)CN(C)CC(C(=O)c3ccccc3)(C1)C2
    x | -1.0
Cc1cc(C)c(NC(=O)C2CSCCS2)c(C)c1 (configuration not stated)
    i | 0.1
COc1ccc(OC)c(-n2cnc3cc(C(=O)NCCCN4CCOCC4)ccc32)c1
    x | 1.0
COC(=O)c1cc(Nc2cc(C)nc3ncnn23)cc(C(=O)OC)c1
    x | -1.7
CCOc1ccccc1NC(=O)C1=C(C)NC(=O)NC1c1cccc(OC)c1OC (configuration not stated)
    x | -1.4
COc1ccc(N(C(=O)COc2ccccc2)C2C=CS(=O)(=O)C2)cc1 (configuration not stated)
    x | -1.3
CCOc1cc2[nH]c(=O)n(CCCCC(=O)NC3CCCCC3)c(=O)c2cc1OCC
    x | -2.3
CCN(CCNC(=O)C1CCN(S(=O)(=O)c2cccc3cccnc23)CC1)c1ccccc1
    i | 0.6
CC1CCCCN1CCn1c(=S)[nH]c2ncccc2c1=O (configuration not stated)
    x | 0.6
CCCCn1c(=O)[nH]c(=O)c2c1nc(COc1ccc(C#N)cc1)n2CCC
    i | 1.0
O=C(NCc1cccs1)C1CCC(CNS(=O)(=O)c2ccc(Br)s2)CC1 (configuration not stated)
    x | 0.4
COc1ccc(NC(=O)c2cnc3sccn3c2=O)cc1
    x | -1.1
O=C(Nc1cccnc1)c1scc2c1OCCO2
    x | -1.8
COc1ccc(N2CCN(C(=O)Cc3ccc(-n4c(=O)[nH]c5ccccc5c4=O)cc3)CC2)cc1
    i | 0.1
CCOC(=O)N1CCC(NC(=O)CSCc2cnn(-c3ccccc3)c2-n2cccc2)CC1
    x | -1.5
CCn1c(=NC(=O)CSC(C)=O)sc2cc(F)ccc21
    x | 0.0
COc1ccc(-c2cc3nc(C)c(CCC(=O)N4CCCCC4)c(C)n3n2)c(OC)c1
    x | 0.4
FC(F)(F)C(F)(F)C(F)(F)c1nnc2ccc(N3CCOCC3)nn12
    i | -2.0
OCCn1c(-c2ccc3c(c2)OCO3)csc1=Nc1ccccc1
    i | 0.8
COc1ccc(C(=O)n2cnc(N)n2)cc1
    x | -2.4
N#Cc1c(NC(=O)COC(=O)C2CC3C=CC2C3)oc(-c2ccccc2)c1-c1ccccc1 (configuration not stated)
    i | -2.7
Cc1noc(C)c1S(=O)(=O)N1CCCC(C(=O)N2CCC(C)CC2)C1 (configuration not stated)
    x | -0.6
O=C(Nc1c(F)cc(F)cc1Br)c1cc(-c2ccc(O)cc2)on1
    x | 0.8
Cc1c(C(C)O)nnn1-c1nonc1N (configuration not stated)
    x | 0.3
N#CC(C(=O)NCCc1ccccc1)c1nc2ccccc2nc1N1CCOCC1 (configuration not stated)
    i | 1.2
Cc1ccc2oc(=O)c3cnn(CC(=O)N4CCc5ccccc5C4)c3c2c1
    x | -0.9
Cc1cc(C)n(-c2nnc(C)n2/N=C/c2ccco2)n1
    i | 1.2
COc1ccc(C2C(C(=O)Nc3cc(C)on3)c3ccccc3C(=O)N2C)cc1OC (configuration not stated)
    x | 0.2
COc1ccccc1OCc1ccc(C(=O)N2CCN(C(=O)c3ccco3)CC2)cc1
    i | -1.5
Cc1c(C(=O)NCCc2ccccc2)oc2ccc(S(=O)(=O)N3CCOCC3)cc12
    x | 0.9
CCOC(=O)c1cnc(-n2cc(C)cn2)nc1Nc1ccccc1OC
    i | -0.7
Cn1cccc1Cc1nnc(SCC(=O)NCCc2ccccc2)n1-c1ccc(F)cc1
    x | -0.1
CCOC(=O)CSc1nnc(CNC(=O)c2ccc(OC)cc2OC)n1-c1ccc(OC)cc1
    x | 1.5
Cc1nc2sc(C(c3ccccc3)N3CCN(c4ccccc4F)CC3)c(O)n2n1 (configuration not stated)
    i | 0.5
Cc1nn(Cc2ccc(Cl)cc2)c(C)c1NC(=O)c1cc(-c2ccco2)on1
    x | 0.9
Cc1ccc2oc(=O)c3cnn(CC(=O)NC4CCN(Cc5ccccc5)CC4)c3c2c1
    x | 0.7

Of the compounds above, these contain two or more sulfur atoms:
The line under a structure holds: VCAM-1 rise | Proteasome disasm
CC1Cc2nc(SCC(=O)NC3CCCCC3)n(C)c(=O)c2S1 (configuration not stated)
    x | 6.7
O=C(CNS(=O)(=O)c1cccc2nsnc12)NC1CCCCC1
    x | -0.3
Cc1cc(C)c(NC(=O)C2CSCCS2)c(C)c1 (configuration not stated)
    i | 0.1
O=C(NCc1cccs1)C1CCC(CNS(=O)(=O)c2ccc(Br)s2)CC1 (configuration not stated)
    x | 0.4
CCn1c(=NC(=O)CSC(C)=O)sc2cc(F)ccc21
    x | 0.0

An excerpt from above in order of their number in Proteasome disasm, low to high:
The line under a structure holds: VCAM-1 rise | Proteasome disasm
CCOc1cc2[nH]c(=O)n(CCCCC(=O)NC3CCCCC3)c(=O)c2cc1OCC
    x | -2.3
Cc1nc2sc(C(c3ccccc3)N3CCN(c4ccccc4F)CC3)c(O)n2n1 (configuration not stated)
    i | 0.5
CCCCn1c(=O)[nH]c(=O)c2c1nc(COc1ccc(C#N)cc1)n2CCC
    i | 1.0

New compounds follow:
The line under a structure holds: VCAM-1 rise | Proteasome disasm
Cc1ccc(CSC2=NCCN2C(=O)C2CC2)cc1
    i | 1.1
COc1ccc(-c2nc(CS(=O)CC(=O)NCCCN3CC(C)CC(C)C3)c(C)o2)cc1OC (configuration not stated)
    x | -0.8
Cc1cc(C)n(C(C)n2nc(C)cc2C)n1
    i | 3.8
CCN=C1SC(CC(=O)Nc2ccccc2OCC)C(=O)N1CC (configuration not stated)
    i | 0.1
CC1(C)Cc2noc(N)c2C(C)(C)N1OC(=O)c1cccs1
    i | 0.1
O=C(C1CCC(CNc2c(N3CCCCC3)c(=O)c2=O)CC1)N1CCCCC1 (configuration not stated)
    x | 1.1
CCOC(=O)C1CCN(C(=O)c2cn(CCOC)c(=O)c3c2c2ccccc2n3C)CC1
    x | -0.2
CC1CCCC(NC(=O)CC2Nc3ccccc3NC2=O)C1C (configuration not stated)
    x | 1.0
CCC(=O)N1CCc2cc(OC)c(OC)cc2C1COc1ccc(C(=O)OC)cc1 (configuration not stated)
    i | 0.5
CCOC(=O)C1CCCN(C(=O)Cn2nc(Cc3cccnc3)c3ccccc3c2=O)C1 (configuration not stated)
    x | -1.1
Cc1cccc(N2CCN(C(=O)COc3cc(=O)n(C)c4ccccc34)CC2C)c1 (configuration not stated)
    x | -0.5
C=C(c1cccc2ccccc12)P(=O)(O)O
    i | -0.6
COc1cccc(-c2nc(-c3ccc(NC(=O)Cc4ccccc4OC)cc3)no2)c1
    i | -0.9
CCN1CCc2c(sc(NC(=O)c3ccc(S(=O)(=O)N4CCOCC4)cc3)c2C(=O)OC)C1
    x | -1.2
CCC(=O)N1CCc2cc(S(=O)(=O)CCC(=O)N3CCc4ccccc4C3)ccc21
    x | -0.3
COc1ccc(S(=O)(=O)NC(CC(=O)NCc2ccc3c(c2)OCO3)c2ccco2)cc1 (configuration not stated)
    x | 0.2
O=C(Nc1c(-c2ccccc2)nc2ccccn12)c1ccco1
    i | -1.5
O=C(NCCOC(=O)C1COc2ccccc2O1)c1cccnc1 (configuration not stated)
    x | -0.6
FC(F)(F)c1cccc(N2CCN(c3nnnn3-c3ccccc3)CC2)c1
    i | -2.3
CCOC(=O)COc1cc(=O)n(CC)c2ccccc12
    x | -0.4
Fc1cccc(Cl)c1Cn1nnc2c(NCc3ccccn3)ncnc21
    i | -1.0
CCCC(=O)Nc1sc(C(=O)OC)c(C)c1C(N)=O
    x | 0.9
CCOC(=O)C1C(=O)C=C(N2CCOCC2)CC1c1cccc(OC)c1 (configuration not stated)
    x | 1.2
COc1ccccc1N1CCN(C(=O)C2CCC(Cn3c(=S)[nH]c4ccccc4c3=O)CC2)CC1 (configuration not stated)
    x | -0.3
CCCN(CCC)C(=O)CC(c1ccc(F)cc1)c1ccco1 (configuration not stated)
    i | -1.8
CCCC(=O)Nc1ccccc1NC(=O)CN(C)S(=O)(=O)c1ccc(C)cc1
    i | 1.3
CCOC(=O)c1cc2c(=O)n3ccccc3nc2n(CC2CCCO2)c1=NC(C)=O (configuration not stated)
    i | 0.2
O=C(c1cc(-c2ccc(Cl)cc2)on1)N1CCOCC1
    x | -0.3
O=C(NC1CCCCCCC1)c1ccc(CNc2c(N3CCOCC3)c(=O)c2=O)cc1
    x | -0.1
Cc1ccsc1-c1nc(CSCC(=O)N2CCN(c3ccccc3)CC2)c(C)o1
    x | 0.8
COc1cccc(-c2nc(CSCC(=O)NCC3CCCO3)c(C)o2)c1 (configuration not stated)
    x | -1.8
O=C(Nc1ccc(F)c(F)c1)c1ccc(F)c(S(=O)(=O)N2CCOCC2)c1
    x | -0.7
N#CC(C(=O)Nc1ccccc1)=C1CCCCC1
    i | 1.6
CCOC(=O)c1cccc(NC(=O)CSc2nc3ccccc3c(=O)n2CC)c1
    i | -2.9
O=C(NC1CCCCCC1)C1c2ccccc2C(=O)N1CCCN1CCOCC1 (configuration not stated)
    x | 0.6
O=C(NCc1ccc2c(c1)OCO2)C1CCCN(S(=O)(=O)c2cccs2)C1 (configuration not stated)
    x | 0.1
COc1ccc(-n2nc(C(=O)O)c3ccccc3c2=O)c(OC)c1
    x | 0.7
Cc1cccn2c(=O)c3cc(C(=O)NCc4ccccn4)n(C)c3nc12
    x | 0.6
COCc1cc(C)nc2sc(C(=O)N3CCN(c4ccccc4)CC3)c(N)c12
    x | 1.3
O=C(Nc1ccccc1)N1CCCC2CCCCC21 (configuration not stated)
    x | -0.2
Cn1c(CCCNC(=O)c2ccccc2)nc2ccccc21
    i | 0.8
CCOC(=O)CN1C(=O)COc2ccc(Cl)cc21
    x | 0.8
O=C(COC(=O)c1ccc(Br)o1)Nc1ccc(S(=O)(=O)N2CCCC2)cc1
    i | 1.2
Cn1cnc(S(=O)(=O)Nc2ccc(C(F)(F)F)cc2)c1
    i | -1.2
Cc1ccc(CN2C(=O)CCC2C(=O)NCc2ccc3c(c2)OCO3)cc1 (configuration not stated)
    x | 3.0
COc1ccc(C2c3c(oc4ccccc4c3=O)C(=O)N2Cc2ccncc2)cc1OC (configuration not stated)
    i | 1.2
C=CCn1c(NC)cc(=O)n(C)c1=O
    x | -1.0
O=C(NCc1cccs1)C1CCCN(c2nc3ccccc3o2)C1 (configuration not stated)
    x | 1.1
CCC1Oc2ccc(C)cc2N(CC(=O)NCCC2=CCCCC2)C1=O (configuration not stated)
    x | -2.8
Cc1nc(S(=O)(=O)N2CCOCC2)c(C#N)c(C)c1Cl
    x | -2.2
CC1(C)CC(=O)C=C(Nc2ccccc2O)C1
    x | -2.5
Cc1cc(C(F)(F)F)c(C#N)c(SCC(=O)NC(C)(C)C)n1
    x | -1.1
C/C=C/Cn1c(Br)nc2c1c(=O)[nH]c(=O)n2C
    i | -2.0
CC(=O)OCC(=O)[C@@]1(O)CC[C@H]2[C@@H]3CCC4=CC(=O)CC[C@]4(C)[C@H]3C(=O)C[C@@]21C
    i | -1.2
